eIF4H inh – inhibitors of RNA binding by human eIF4H; Q15056; eIF4H fluorescence polarization binding assay; inhibition, % at 35 µM; actives 0.94% (n = 290,000); AID 2012;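 active means 50% or more with normal probe brightness, or confirmed in later tests; inconclusive means above 50% with abnormal brightness, or retests that disagree; inactive means below 50% or failed in later tests; about a fifth of its hits are not listed in these tables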;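 further: calls also rest on retests at 20 µM and on dose response follow-up; 0% = protein and probe with vehicle and 100% = probe without protein; strong numbers were not always called active; many hits fall short of the cut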
CSC inhib – cancer stem cell inhibition; cancer stem cell-like cells viability, luminescence; actives 1.1% (n = 300,000); inhibition, % at 7.5 µM;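 active means mean at 75% or more and at least half the replicates too; inconclusive means mean and replicates disagree; tested in HMLE shEcad cells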;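 further: 0% = median of negative and 100% = median of positive control wells; the first replicate is given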
UUG fidelity – yeast start codon fidelity modulation; S. cerevisiae UUG-firefly luciferase reporter, luminescence/redox ratio; activity score, % at 18.7 µM; actives 0.13% (n = 350,000); AID 602363;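 active means replicate mean at a twofold rise or more, about +100% in these data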;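 further: firefly luciferase made from a UUG start codon reports start codon fidelity; reporter light over untreated wells divided by growth signal over untreated wells; some hits fall short of that in this replicate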
Rce1 inh – inhibitors of yeast Ras-converting enzyme. yeast membranes, quenched prenylated peptide cleavage fluorescence. calls only. actives 0.27% (n = 290,000). AID 2563;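 active means fall in fluorescence gain of 50% or more versus controls, with final raw signal at or below 3038400; inconclusive means same 50% fall but final raw signal above 3038400; inactive means fall in fluorescence gain under 50%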;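 further: plate controls were neutral control wells for no effect and wells lacking membranes for full effect; tested at 10 µM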
HIV Env fusion – inhibitors of HIV Env-mediated cell fusion | HeLa-JRFL Env/CEM21 cell fusion, luciferase | inhibition, % at 12.3 µM | actives 1.1% (n = 360,000) | AID 651610;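 active means mean replicate inhibition score of at least 50 and every replicate individually at or above 50; inconclusive means only one of the two criteria met; inactive means mean below 50 and not all replicates reaching 50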;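 further: 0% = plate neutral controls and 100% = maraviroc near 300 nM; one replicate is shown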
PABP FP inh – PABP-poly(A) binding inhibition | P11940 | PABP-poly(A) RNA binding, fluorescence polarization | inhibition, % at 35 µM | actives 1% (n = 290,000);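 active means 50% or more with normal probe brightness, or confirmed in later tests; inconclusive means above 50% with abnormal brightness, or retests that disagree; inactive means below 50% or failed in later tests; about a fifth of its hits are not listed in these tables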;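 further: calls also rest on retests at 20 µM and on dose response follow-up; controls were probe without protein and protein plus probe with vehicle; some compounds called inactive have numbers as strong as hits; many hits fall short of the cut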
Target sequence (P11940 whole entry, looked up): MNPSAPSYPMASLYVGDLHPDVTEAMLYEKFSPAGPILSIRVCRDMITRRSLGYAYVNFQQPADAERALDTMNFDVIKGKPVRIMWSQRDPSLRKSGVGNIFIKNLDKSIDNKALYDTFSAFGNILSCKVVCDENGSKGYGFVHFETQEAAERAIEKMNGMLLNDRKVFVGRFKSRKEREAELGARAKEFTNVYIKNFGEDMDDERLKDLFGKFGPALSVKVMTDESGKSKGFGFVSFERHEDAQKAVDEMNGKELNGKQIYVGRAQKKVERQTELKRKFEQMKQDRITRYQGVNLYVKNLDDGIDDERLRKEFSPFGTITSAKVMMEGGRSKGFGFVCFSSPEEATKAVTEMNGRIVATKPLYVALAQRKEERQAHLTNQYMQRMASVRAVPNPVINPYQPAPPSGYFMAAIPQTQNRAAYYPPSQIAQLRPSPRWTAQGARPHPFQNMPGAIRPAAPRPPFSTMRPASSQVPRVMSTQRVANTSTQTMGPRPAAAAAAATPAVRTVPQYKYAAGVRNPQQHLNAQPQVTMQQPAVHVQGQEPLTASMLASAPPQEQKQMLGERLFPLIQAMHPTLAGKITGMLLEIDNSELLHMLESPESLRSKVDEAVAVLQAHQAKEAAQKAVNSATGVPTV
MT1-MMP act inh – blocks activation of human MT1-MMP. P50281. HT1080 RFP-PRO-GFP cells, GFP/RFP ratio fluorescence, overnight; percent of plate control window, DMSO zero. GFP/RFP ratio change, % at 20 µM. actives 0.061% (n = 360,000). AID 651647;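 active means GFP/RFP ratio change of at least 30% with cell ATP level not reduced by more than half and red fluorescence within 50% of control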; further: strong numbers were not always called active
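Assay system: HT1080 RFP-PRO-GFP cells. Benchmarks: DMSO vehicle wells and RFP-L50D-GFP reporter cell wells. Times: overnight cell settling, then overnight compound exposure, 37 °C, 5% CO2. Compound: 20 µM single dose, 1% DMSO. Read-out basis: GFP/RFP fluorescence ratio.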
eIF4H inh retest – recorded beside eIF4H inh, whose call it bears; inhibition, %; compound at 20 µM; confirmation average;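 mean of two retest wells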
PABP FP inh retest – also measured in PABP FP inh; calls as there; inhibition, %; compound at 20 µM; confirmation repeats;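 mean of two retest wells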
MT1-MMP act inh RFP – second read-out of MT1-MMP act inh, no call of its own (marks repeat the call); RFP signal change, %; measured here: RFP expression control read;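 0 = vehicle wells; hits needed this value within 50% of zero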
An asterisk follows results filed as active; i = inactive; ? = inconclusive; / = no result given.

SMILES | eIF4H inh | CSC inhib | UUG fidelity | Rce1 inh | HIV Env fusion | PABP FP inh | MT1-MMP act inh | MT1-MMP act inh RFP | others
CC(C)(C)C(=O)Nc1nc2ccc(S(C)(=O)=O)cc2s1 | 1 | -12 | / | i | -29 | 4 | 4 | 3
O=C(Cn1cnc2c(nnn2-c2ccc(F)cc2)c1=O)NCc1ccco1 | 9 | -5 | -15 | i | / | 18 | 0 | 5
Cc1ccc(Nc2nc(Cl)nc(N(C)C#N)n2)cc1 | -1 | -3 | -12 | i | / | 3 | -3 | 4
COc1cccc(NC(C)(C)c2nnnn2-c2c(C)cccc2C)c1 | -2 | -4 | -4 | i | 14 | -6 | 1 | 0
CCOC(=O)c1ccc(NC(=O)CSc2nnc(CCc3ccc(C)o3)n2-c2ccccc2)cc1 | -8 | -10 | -16 | i | / | 12 | -8 | -9
C=CCn1c(N)c(C(=O)OC(C)(C)C)c2nc3ccccc3nc21 | -7 | / | -20 | i | / | 6 | -1 | 0
Cc1ccccc1Nc1nnc(SCC(=O)NC2CCCc3ccccc32)s1 (configuration not stated) | -6 | -9 | -10 | i | / | 5 | 3 | -2
Cc1ccc(C)n1-n1cnc2sc3c(c2c1=O)CCCCC3 | 1 | -17 | -16 | i | / | 0 | -2 | -2
CC(=O)c1ccc(S(=O)(=O)NCC(=O)NC(c2nc3ccccc3[nH]2)C(C)C)cc1 (configuration not stated) | / | -7 | -49 | / | / | / | -2 | 1
O=C(O)c1cc(-c2ccc(/C=C3\NC(=O)N(c4ccccc4)C3=O)o2)ccc1Cl | 41 | 19 | -7 | i | 5 | 35 | -2 | 5
O=C(CNCCO)Nc1ccc(F)c(Cl)c1 | 12 | -14 | / | i | 9 | 2 | 2 | 11
CCOC(=O)c1c(C)[nH]c(C(=O)N2CCCC(C(=O)c3ccccc3OC)C2)c1C (configuration not stated) | 13 | -4 | 4 | i | 11 | 2 | 6 | 7
CCOC(=O)C(C)CC(C)C(=O)N1CCOCCN(C(=O)C(C)CC(C)C(=O)OCC)CCOCC1 (configuration not stated) | -5 | 4 | -4 | i | -19 | -1 | -1 | 7
C=C(C)[C@@H]1CCC2(C(=O)O)CC[C@]3(C)[C@H](CC[C@@H]4[C@@]5(C)CCC(=O)C(C)(C)[C@@H]5CC[C@]43C)[C@@H]12 (some centres not stated) | 6 | 0 | -10 | i | 33 | 3 | -3 | -28
O=C(c1[nH]c(C(F)(F)F)nc1-c1ccccc1)N1CCN(c2c(Cl)cncc2Cl)CC1 | / | / | 2 | / | 0 | / | -4 | -6
Cc1ccccc1C(=O)N1CCCC(N2CCN(Cc3ccc4c(c3)OCO4)CC2)C1 (configuration not stated) | -3 | 2 | -28 | i | 12 | 11 | 0 | -2
CCN1CCN(C(CNS(=O)(=O)c2ccc(C)cc2)c2cccnc2)CC1 (configuration not stated) | -2 | -5 | -18 | i | -17 | 2 | -3 | -3
Cc1ccc2nc(/C(C#N)=C/c3ccc(O)c(O)c3)[nH]c2c1 | 50 | 40 | -12 | i | -65 | -10 | -196 | -12 | eIF4H inh retest=4;PABP FP inh retest=46
C/C=C/c1ccc(OCC(O)CN2CCCCC2CC)c(OC)c1 (configuration not stated) | 6 | -1 | -18 | i | -9 | -12 | 2 | -2
O=C(NC(c1ccc(F)cc1)c1ccc2ccccc2n1)C1CCN(CCOc2ccc(Cl)cc2Cl)CC1 (configuration not stated) | / | / | -34 | / | ? | / | -2 | -6
Cc1nc2ccc(Cl)cc2c(-c2ccccc2)c1C(=O)N(C)C | 1 | -10 | 8 | i | -4 | 8 | 5 | -3
CN(C(=O)c1ccnn1C)C1CCCN(Cc2ccccc2F)C1 (configuration not stated) | 2 | 4 | -14 | i | 11 | 1 | -2 | 1
COc1ccccc1NC(=S)N1CC(C)OC(C)C1 (configuration not stated) | -6 | -2 | -17 | i | 12 | -14 | / | /
Cc1ccc(C(C)C)c(OCc2ccc(-c3nnco3)cc2)c1 | -3 | 26 | -17 | i | / | -14 | 0 | -14
Cc1ncc(C[n+]2csc(CCOC(=O)CC34CC5CC(CC(C5)C3)C4)c2C)c(N)n1 | 0 | 39 | / | i | / | 0 | -1 | 5
Cc1nc2c(-c3ccc(F)cc3)c(C)nn2c(C)c1CCC(=O)Nc1ccccc1F | 4 | 37 | -12 | i | ? | 3 | 7 | -5
O=C1C(=O)N(O)C2CCCCC2N1O (configuration not stated) | 2 | -5 | / | i | 11 | -11 | -2 | 1
COc1ccccc1CNC(=O)CSc1ccc(-c2cccs2)nn1 | -4 | -4 | / | i | 5 | 7 | -1 | -1
COC(=O)c1cc(Cl)c(NC(=O)C(C)C)cc1OC | 4 | -11 | / | i | 1 | 16 | -5 | -6
CC(Oc1ccc2ccccc2c1)C(=O)NNC(=O)Nc1ccccc1 (configuration not stated) | 2 | -1 | 2 | i | -13 | -2 | -1 | -1
O=C(C1CC1)N1c2ccccc2Sc2ccccc21 | 0 | 71 | -23 | i | -97 | -7 | -5 | -15
O=C(COC(=O)CCC(=O)c1ccc(Cl)cc1)NCc1ccc(F)cc1 | / | 1 | -8 | / | -13 | / | 2 | 1
CCOC(=O)c1c(C)nc(C)c(C(=O)OCC)c1-c1ccco1 | 10 | -2 | / | i | -16 | 7 | 2 | -3
Nc1cc(Cl)ccc1C(=O)OCC(=O)N1CCCCCC1 | / | -8 | -4 | / | -28 | / | 1 | -3
O=C(N=Nc1c(O)[nH]c2ccc(F)cc12)C1COc2ccccc2O1 (configuration not stated) | -9 | -15 | -18 | i | -10 | 4 | -4 | -1
Cc1cccc(N2CC(C(=O)NCCC3=CCCCC3)CC2=O)c1C (configuration not stated) | / | -2 | 2 | i | / | / | 0 | 0
O=C(NCCc1ccccc1)c1cnn2c(C(F)F)cc(C3CC3)nc12 | -1 | -10 | -2 | i | / | 0 | 0 | -5
O=C(c1ccc(C(F)(F)F)cc1)n1ccc(-c2cccs2)n1 | -2 | -18 | / | i | 0 | 3 | 0 | 1
CCOc1ccc(N(CC(=O)NC2CCCC2)S(=O)(=O)c2c(C)noc2C)cc1 | 6 | 1 | -14 | i | / | 2 | -1 | 2
Cc1nc2ccccn2c1C(=O)OCC#N | -8 | -7 | -10 | i | -22 | 7 | -4 | 1
COc1ccccc1C(=O)/C=C/c1ccc(N2CCCCC2)c([N+](=O)[O-])c1 | -1 | / | -17 | i | -29 | -3 | 6 | -17
O=C(c1cccc(S(=O)(=O)N2CCN(c3ccc(F)cc3)CC2)c1)N1CCCC1 | / | 3 | 3 | / | 2 | / | 2 | 10
CCc1cccc(CC)c1N1C(=O)CSCC1=O | / | / | -3 | / | -3 | / | -4 | 6
O=C(Cc1c(F)cccc1Cl)N1CCN(C(=O)c2ccco2)CC1 | 0 | -15 | 6 | i | / | -8 | 2 | -3
CC(C)O/C(=N/S(=O)(=O)c1ccc(Cl)cc1)c1ccccc1 | / | / | -5 | / | -2 | / | 2 | -5
Cn1c(Cn2c(=O)sc3ccccc32)nnc1SCC(=O)NCc1ccc(F)cc1 | 6 | -25 | -9 | / | -8 | -4 | 0 | 4
Cc1ccc(F)c([C@H]2C3C=CCC(c4ccccc4)C3C(=O)N2Cc2ccccc2)c1 (some centres not stated) | -5 | 122* | -17 | i | 16 | -9 | -10 | -7
Cc1cccc(NC(=O)CCc2c(C)nn(-c3ccc(N4CCOCC4)nn3)c2C)c1 | -3 | -3 | -3 | i | -9 | 2 | 0 | 0
C=CC[C@@H](CC(=O)N[C@@H](CO)Cc1ccccc1)C(=O)N[C@H](COC(=O)[C@@H](CC=C)Cc1ccc(F)cc1)Cc1ccccc1 | / | -17 | -14 | / | -8 | / | 0 | -5
C=CCc1ccccc1OCCCCN1CCCC1 | 3 | 7 | -14 | i | / | 10 | 2 | 4
O=[N+]([O-])c1ccc(-c2csc(Nc3ccccc3)[n+]2Cc2ccccc2)cc1 | 1 | 24 | -13 | i | -10 | 10 | -4 | -10
CCC(C)(C(=O)NC1CCCCC1)N(C(=O)C1CCC(=O)N1)c1ccccc1 (configuration not stated) | -11 | -7 | -20 | i | -37 | 5 | 0 | 3
COc1cc(Cl)c(C)cc1NC(=O)COc1cc(C)nc(C(C)C)n1 | 4 | -8 | -7 | i | 11 | -3 | 0 | 0
CCNC(=O)CSc1nnc(-c2cccc(S(=O)(=O)N3CCOCC3)c2)o1 | / | / | -4 | / | -11 | / | 11 | 5
N#CCSc1nc2ccccc2c(=O)n1CCC(=O)NCCc1ccccc1 | -5 | -8 | -6 | i | -18 | 8 | -2 | 0
CN(C(=O)c1ccc(-c2ccccc2)cc1)C1CCCCC1 | / | 12 | -10 | i | -104 | / | 2 | -6
COc1cc(NC(=O)c2cc3nc(C)cc(C)n3n2)c(OC)cc1Cl | 5 | -13 | 1 | i | / | 8 | -4 | -3
O=C1C2C3C=CC(C4CC34)C2C(=O)N1Cc1ccco1 (configuration not stated) | -7 | 1 | / | i | 14 | 10 | / | /
Oc1ccc(Cl)cc1C=Nc1ccc2c3c(cccc13)CC2 | 99 | 4 | -19 | i | 6 | 0 | -101 | 5 | eIF4H inh retest=13;PABP FP inh retest=47
CCOc1ccc(N(C(=O)c2cc3ccccc3oc2=O)C2C=CS(=O)(=O)C2)cc1 (configuration not stated) | -8 | -2 | -12 | i | 6 | -3 | 1 | 3
(next part)
SMILES | eIF4H inh | CSC inhib | UUG fidelity | Rce1 inh | HIV Env fusion | PABP FP inh | MT1-MMP act inh | MT1-MMP act inh RFP | others
Cc1cc(SCC(=O)OCC(=O)N(C)C2CCS(=O)(=O)C2)c(C)cc1Br (configuration not stated) | / | -2 | -11 | i | / | / | -3 | 0
Cc1ccc(N(C)S(=O)(=O)c2c(C)noc2/C=C/N(C)C)cc1 | -12 | 17 | -9 | i | 1 | -12 | -9 | 0
COc1cc(/C=N/NC2=NS(=O)(=O)c3ccccc32)ccc1OC(C)=O | 12 | -13 | -16 | i | 11 | -9 | -2 | 6
COC(=O)C(CC(C)C)NC(=O)c1ccc(F)cc1 (configuration not stated) | 0 | 5 | 1 | i | / | -5 | 0 | -1
CCCCC1NC(C(=O)O)CS1 (configuration not stated) | -2 | -13 | -1 | i | / | -1 | -5 | -1
COc1ccc(NC(=O)CN2C(=O)NC(C)(C3CC3)C2=O)c(OC)c1 (configuration not stated) | / | / | -15 | / | 1 | / | -1 | 5
COc1ccc(NC2=Nc3ccccc3CC2)cc1 | 4 | 23 | -22 | i | ? | 12 | -3 | 0
CCn1c(SCC(=O)Nc2cccc(C)c2)nc2ccccc2c1=O | -4 | 23 | -13 | i | 9 | -5 | 2 | -5
O=C(C1CCN(S(=O)(=O)c2cccc3cccnc23)CC1)N1CCN(Cc2ccccc2)CC1 | / | / | -11 | / | -21 | / | -1 | 4
CCCCNC(=O)NS(=O)(=O)c1ccc(C(=O)OC)o1 | -1 | 2 | 42 | i | / | 13 | 1 | 4
CCOC(=O)C1(CCc2ccccc2)CCN(Cc2nccn2CC)CC1 | 1 | 5 | / | i | -11 | -1 | -6 | -8
Cn1c(=O)c2c(n(Cc3ccccc3)c1=O)NC(=O)C2CC(=O)O (configuration not stated) | -4 | -3 | -4 | i | -81 | -5 | 3 | 5
COC(=O)C1=CN(c2cccc(C)c2)C=C(C(=O)OC)C1c1cc(OC)c(O)c([N+](=O)[O-])c1 | -1 | 12 | -3 | i | 6 | -6 | 23 | -3
CN(C)S(=O)(=O)Nc1ccc2c(c1)Cc1ccccc1-2 | 6 | -5 | -10 | / | / | -3 | 2 | -1

A portion of the library; count on the stated rates, not on these rows.
